TRPV1 potentiator = HTS Assay for Compounds that Act as Potentiators of the Vanilloid Receptor 1. potentiation, % at 8.33 µM. Transient receptor potential cation channel subfamily V member 1 (Homo sapiens), Q8NER1. TRPV1-expressing cells, Fluo-8 calcium influx, capsaicin EC20 potentiation; host cell line not named in the record; control for the full effect not named in the record. AID 540277, 2011. 320,000 compounds, 0.02% hits; active means potentiation above 80%; inconclusive means 30% to 80%; inactive means below 30%; also: 0% is about no effect
Target sequence (Q8NER1 whole entry, looked up): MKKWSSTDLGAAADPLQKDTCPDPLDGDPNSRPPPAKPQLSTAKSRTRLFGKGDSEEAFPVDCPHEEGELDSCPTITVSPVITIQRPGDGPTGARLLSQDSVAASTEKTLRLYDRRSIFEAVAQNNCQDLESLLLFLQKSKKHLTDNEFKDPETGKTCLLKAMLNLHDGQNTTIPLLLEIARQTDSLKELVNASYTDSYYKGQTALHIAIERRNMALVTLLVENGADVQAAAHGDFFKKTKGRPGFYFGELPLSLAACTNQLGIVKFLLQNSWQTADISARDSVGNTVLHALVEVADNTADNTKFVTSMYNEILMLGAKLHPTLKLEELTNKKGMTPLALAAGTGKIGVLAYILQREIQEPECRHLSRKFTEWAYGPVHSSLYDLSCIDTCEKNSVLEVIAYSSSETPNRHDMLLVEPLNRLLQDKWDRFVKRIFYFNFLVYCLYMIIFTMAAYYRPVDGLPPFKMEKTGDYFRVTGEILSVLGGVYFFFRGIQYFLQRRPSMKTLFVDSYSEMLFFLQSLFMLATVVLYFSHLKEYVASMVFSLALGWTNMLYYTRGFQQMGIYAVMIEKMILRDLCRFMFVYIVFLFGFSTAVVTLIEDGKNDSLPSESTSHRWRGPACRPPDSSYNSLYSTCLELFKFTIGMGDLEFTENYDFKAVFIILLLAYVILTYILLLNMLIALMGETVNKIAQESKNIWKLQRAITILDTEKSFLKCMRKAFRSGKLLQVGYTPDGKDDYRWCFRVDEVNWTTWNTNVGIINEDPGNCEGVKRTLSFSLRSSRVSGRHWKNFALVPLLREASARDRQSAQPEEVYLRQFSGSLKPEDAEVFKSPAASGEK
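TRPV1-expressing cells were cultured overnight at 35.5C and loaded with Fluo-8 calcium dye for 40 to 90 min at room temperature. After a 10 s baseline, compound was added and calcium influx was read kinetically for 3 min (ex 480/em 520 nm).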
Sfp inh = qHTS Assay for Inhibitors of Bacillus subtilis Sfp phosphopantetheinyl transferase (PPTase); 4'-phosphopantetheinyl transferase ffp (Bacillus subtilis), Q9F4F7; 310,000 compounds, 3.5% hits; Biochemical Sfp PPTase activity, qHTS; Potency, µM, for inactives: max response, negative = inhibition, actives largely listed as inhibitors; active = well fitted inhibition curve with a large enough effect; inconclusive = small, poorly fitted or top-dose-only effect, or another doubt; inactive = no such curve, though single readings can be large or run the other way;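 also: the enzyme is Sfp with the accession as filed and its product quenches rhodamine fluorescence; potency is read from the fitted curve at half-maximal effect; 0% = enzyme reaction without inhibitor and -100% = no enzyme wells; top concentration of the series not given in the record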
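Fluorescence-quenching assay with 15 nM Sfp, 5 uM rhodamine-CoA and 12.5 uM BHQ-2-labelled ybbR peptide in pH 7.6 Hepes/MgCl2 buffer. Enzyme was pre-incubated with compound for 15 min at room temperature. Rate was taken from the 30-min fluorescence change (525/598 nm).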
gsp antag = qHTS for Antagonists of gsp, the Etiologic Mutation Responsible for Fibrous Dysplasia/McCune-Albright Syndrome: qHTS | 340,000 compounds, 0.4% hits | Potency, µM (series often up to 76.9 µM), inactives show at the highest dose activity change, negative = inhibition, usual class: inhibitors | gsp-mutant cells, cAMP HTRF, 30 min; control for the full effect not named in the record; active = falling curve of any shape with a large fitted effect; inconclusive = falling curve, mostly with a smaller effect; inactive = flat or rising curve; cell line not stated here;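 also: intracellular cAMP measured with PDE inhibitor Ro 20-1724 present during compound exposure; potency is read from the fitted curve at half-maximal effect; % is scaled to controls: 0 for no effect and ±100 for the full control effect; nearly all actives have a fitted effect of over 65% in size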
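G418-selected cells were plated in DMEM/10% FBS for 16-24 h at 37C, then treated with compounds plus the PDE inhibitor […] (300 uM solution added) for 30 min at 37C. Intracellular cAMP was measured by HTRF after 30 min lysis at room temperature.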
gsp agonist = qHTS for Agonist of gsp, the Etiologic Mutation Responsible for Fibrous Dysplasia/McCune-Albright Syndrome: qHTS; gsp mutant cells, cAMP HTRF, 30 min; control for the full effect not named in the record; Potency, µM (top dose mostly 76.9 µM), for inactives: at the top dose activation (cAMP increase), usual class: activators; 340,000 compounds, 0.13% hits; active = well fitted activation curve with a large enough effect; inconclusive = small, poorly fitted or top-dose-only effect, or another doubt; inactive = no such curve, though single readings can be large or run the other way; cell line not stated here;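 also: phosphodiesterase inhibitor Ro 20-1724 added with compounds to block cAMP breakdown; potency is read from the fitted curve at half-maximal effect; nearly all actives have a fitted effect of over 60% in size; about a fifth of the inactives were tested at one dose only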
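Cells stably selected in G418 were plated at 2000/well, grown 16-24 hr, then given compounds in DMSO with the PDE inhibitor […] (300 uM solution added) for 30 min at 37C; cAMP was read by HTRF.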
TRPML1 blocker = qHTS for Inhibitors of the Human Mucolipin Transient Receptor Potential 1 (TRPML1); 390,000 compounds, 0.02% hits; Mucolipin-1 (Homo sapiens), Q9GZU1; activity change, negative = inhibition, % (test concentration not listed); TRPML1-inducible cells, Ca2+ dye fluorescence, FDSS; stronger effect = lower value; inhibition of EC80 agonist-evoked calcium signal; in the data active means activity change below about -50%; inconclusive means about -30% to -50%; inactive means above about -30%;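 also: stimulus is agonist 54-4 at its EC80 concentration; % is scaled to controls: 0 for no effect and ±100 for the full control effect; compound concentration not given in the record; the text of the record puts the active cut at -80%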
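TRPML1-DL cells, Tet-induced overnight (~16 h, 37 °C) at 1,500 cells/well, were loaded with Ca8 no-wash dye plus quencher for 45-90 min at room temperature. Compounds were pinned during FDSS kinetic reading; agonist 54-4 at EC80 (4 uM final) then added.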
Menin MLL FP FL = qHTS Assay for Inhibitors Targeting the Menin-MLL Interaction in MLL Related Leukemias: Competition With Fluorescein Labeled MLL-derived Peptide; 290,000 tested, under 10 active; Fluorescence polarization, fluorescein-MLL peptide displacement from menin; FP activity change, % at 61.4 µM; AID 1766, 2009; inconclusive = falling polarisation curve, or a change in total fluorescence; inactive = total fluorescence flat and polarisation flat or rising; no compound was filed as active; the % refers to the polarisation; negative = inhibition;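 also: % of control where 0% means no effect; inhibitors lower the polarisation; unlabelled MLL peptide was the positive control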
ClpP mod = qHTS Assay for Activators of ClpP; Potency, µM (series often up to 57.5 µM), without a hit: at the top dose activity change, negative = active; purified B. subtilis ClpP, FRET peptide cleavage, 20 min; 340,000 compounds, 1.9% hits; ATP-dependent Clp protease proteolytic subunit (Bacillus subtilis (strain 168)), P80244; active = well fitted falling curve with a large enough effect; inconclusive = small, poorly fitted or top-dose-only effect; inactive = no such curve, though single readings can be large or run the other way; also: potency is read from the fitted curve at half-maximal effect; the source files actives as falling curves though it sought activators and does not explain the sign; nearly all actives have a fitted effect of over 65% in size; many hits overshoot -100%
Target sequence (P80244 whole entry, looked up): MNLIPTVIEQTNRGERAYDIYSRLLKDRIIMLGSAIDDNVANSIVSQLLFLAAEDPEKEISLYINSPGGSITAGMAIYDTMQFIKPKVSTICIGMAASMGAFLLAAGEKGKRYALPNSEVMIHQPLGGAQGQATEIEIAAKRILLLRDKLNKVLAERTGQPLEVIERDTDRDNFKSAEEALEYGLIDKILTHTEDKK
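FRET quenching reversal measured ClpP activation: 10 microg/mL B. subtilis ClpP at pH 8 with the FRET-FV decapeptide, read at 430 nm after 320 nm excitation. The 20-min minus 0-min signal was scaled between DMSO/no-enzyme wells and ADEP (5.8 microM final).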
Starred values were filed as active, the others as inactive; ? = inconclusive; · = no result given; [ ] = remark or other dose.

SMILES	TRPV1 potentiator	Sfp inh	gsp antag	gsp agonist	TRPML1 blocker	Menin MLL FP FL	ClpP mod
Cc1ccc(CC(=O)OCC(=O)c2ccc[nH]2)cc1C	·	·	-2%	-4%	-8	·	-4.2%
O=S(=O)(Nc1cccc(Cl)c1)c1cccc(-n2cnnn2)c1	·	·	-3%	9%[15.4 µM]	-6	·	0.5%
Cc1ccc(CNC(=O)c2ccc(N3CCC4(CC3)CC(c3ccccc3)=NO4)c(NC(=O)c3ccco3)c2)cc1	7	12%	-13%	·	8	3.4	4.3%
CSC1=NSC2=NC(=O)/C(=C/c3coc4ccccc4c3=O)C(=N)N12	1	-23%	?	-5%	-10	·	-24%
CCOC(=O)c1sc(NC(=O)c2cccc(S(=O)(=O)N3CCc4ccccc43)c2)c(C#N)c1C	-7	-20%	?	-12%	3	9.0	4.1%
CC(C)OP(=O)(OC(C)C)C(C)NC(=O)Cc1ccccc1 (stereo not drawn)	-7	18%	9%	13%	-3	0.7	·
O=C(NC(=S)Nc1cc(Cl)ccc1O)c1cccc(Br)c1	10	-12%	-11%	18%	5	5.0	0.3%
Cc1cc(OC(=O)c2ccccc2)c([N+](=O)[O-])c(=O)[nH]1	-45	-8%	8%	12%	-4	0.0	0.8%
Cc1noc(C(=O)Nc2ccc(F)c(Cl)c2)c1Cl	-6	7%	4%	13%	-8	-0.6	·
C=CCNc1nc2c(c(=O)[nH]c(=O)n2C)n1CCOc1ccccc1	26	-5%	-9%	-4%[15.4 µM]	-18	-4.3	?
COc1ccc(NC(C)=O)cc1S(=O)(=O)Nc1ccccc1C(=O)N1CCCC1	2	24%	14%	-22%[15.4 µM]	20	-0.4	·
CCn1c(C)nc2cc(C(=O)NNC(=S)Nc3ccccc3Cl)ccc21	5	13%	-2%	-62%[inhibitor]	11	0.3	?
COC(=O)/C(C#N)=C/c1c(N2CCCCCC2)nc2ccccn2c1=O	2	1%	-16%	-4%[15.4 µM]	-13	16	-4.0%
O=C(c1cc2ccccc2cc1OCC(O)CN1CCCCC1)N1CCCCC1 (stereo not drawn)	·	20%	8%	?	0	2.9	-11%
CCCc1cc(=O)[nH]c(SCC(=O)NC2CCCCC2)n1	2	20%	-7%	-39%[inhibitor]	8	-2.1	-0.3%
COC(=O)/C(=C\Nc1ccc(Cl)cc1Cl)NC(=O)c1ccc(Cl)cc1Cl	5	-4%	-2%	8%	52	-0.3	-0.5%
O=C(Nc1nccs1)C1CCN(S(=O)(=O)c2cccnc2)CC1	·	-4%	5%	?	-7	5.4	0.8%
Clc1ccc(OCc2nc3ccccc3[nH]2)cc1	-3	11%	-16%	5%[15.4 µM]	17	-1.4	·
CC(C)CCN1C(N(C)C)=NC[C@@H]1C	-6	·	-2%	8%	15	·	-1.6%
CCOC(=O)Nc1ccc2c(c1)N(C(=O)CN)c1ccccc1CC2	7	-14%	-1%	-9%	18	-5.8	-1.2%

Some entries already given, reduced to TRPML1 blocker and gsp antag.
Molecule	TRPML1 blocker	gsp antag
CCCc1cc(=O)[nH]c(SCC(=O)NC2CCCCC2)n1	8	-7%
COC(=O)/C(=C\Nc1ccc(Cl)cc1Cl)NC(=O)c1ccc(Cl)cc1Cl	52	-2%
O=C(Nc1nccs1)C1CCN(S(=O)(=O)c2cccnc2)CC1	-7	5%
Clc1ccc(OCc2nc3ccccc3[nH]2)cc1	17	-16%

Following part:
SMILES	TRPV1 potentiator	Sfp inh	gsp antag	gsp agonist	TRPML1 blocker	Menin MLL FP FL	ClpP mod
CC(=O)NCCNS(=O)(=O)c1ccc(C)c([N+](=O)[O-])c1	-2	7%	-10%	-4%[15.4 µM]	-5	-7.1	·
O=C(O)c1cc(NC(=O)c2cccc(F)c2)cc(NC(=O)c2cccc(F)c2)c1	4	10%	8%	0%[15.4 µM]	16	-5.8	-25%
COc1ccc(NC(=O)C(Cc2cc(C)cc(C)c2)C(C)C(=O)O)cc1 (stereo not drawn)	-10	11%	7%	14%	5	2.1	·
Cc1cc(C(=O)Nc2ccon2)c(C)o1	-4	0%	4%	-7%	4	3.7	·
COc1ccc(-c2ccccc2)c2oc(-c3ccco3)cc(=O)c12	·	·	-6%	2%	-6	·	-7.0%
O=C(/C=C/c1ccccc1[N+](=O)[O-])Nc1ccc(S(=O)(=O)Nc2ncccn2)cc1	8	8%	-1%	-20%	-4	-0.5	0.6%
Brc1c(OCCOCCn2cncn2)ccc2ccccc12	2	6%	-16%	4%	33	-1.2	0.1%
CCOC(=O)CC(N)c1cccc([N+](=O)[O-])c1 (stereo not drawn)	12	19%	6%	-13%[15.4 µM]	-13	-4.2	·
COCC1CCN(C(=O)c2cc(COc3ccc(F)cc3F)on2)C1 (stereo not drawn)	-29	7%	2%	-27%	-6	-5.5	4.1%
CCOC(=O)C1CCCN(C(=S)Nc2ccc(F)cc2)C1 (stereo not drawn)	-9	4%	·	3%[15.4 µM]	-9	-7.9	·
COc1cc(NC(=O)Cn2c(-c3cncs3)nc3ccccc32)cc(OC)c1OC	-8	?	1%	28%	-4	-1.4	-8.7%
O=C(Nc1ccccc1)Nc1nnc(Cc2ccc([N+](=O)[O-])cc2)s1	8	?	-5%	19%	-7	·	1.8%
COc1cc(/C=N\n2nnnc2N)ccc1OCc1ccc(F)cc1	-32	-18%	3%	-26%	40	1.1	?
O=C(O)CCn1cc(/C=C2/NC(=S)N(c3ccccc3)C2=O)c(-c2ccccc2)n1	-1	11%	-10%	-1%	10	3.7	13µM*
CS(=O)(=O)N(CC(=O)N1CCOCC1)c1cccc(Cl)c1Cl	2	1%	6%	1%	-4	-2.7	1.1%
Cc1cc(C)c(C#N)c(SCC(=O)N(CC(C)C)C2CCS(=O)(=O)C2)n1 (stereo not drawn)	-4	·	-7%	-51%	-7	·	2.2%
COCCn1c(N)c(N(Cc2ccccc2)C(=O)Cc2ccccc2F)c(=O)[nH]c1=O	-9	15%	7%	25%	-3	1.4	·
CCn1c(Sc2ccc([N+](=O)[O-])cn2)nnc1-c1ccco1	-5	16%	-4%	-7%[15.4 µM]	2	7.1	·
Cc1ccc(OCC(=O)N(Cc2ccc(N(C)C)cc2)C2CCS(=O)(=O)C2)cc1 (stereo not drawn)	4	-5%	-5%	20%	19	0.5	0.3%
Cc1ccc(NC(=S)NN2CCN(C)CC2)c(C)c1	-2	1%	0%	12%	-8	2.5	0.4%
Cc1cc(C)cc(OCC(=O)Nc2cccc(C(=O)O)c2)c1	7	5%	-17%	-72%[inhibitor]	9	-0.3	-2.9%
COc1cccc(/C=N/NC(=O)COc2cccc3cccnc23)c1O	8	20%	-1%	-4%	-3	-2.2	·
CC(C)C(C(=O)N1CCN(C(=O)OC(C)(C)C)CC1)n1cc(-c2cn([C@@H](C)C(=O)N3CCN(C(=O)OC(C)(C)C)CC3)nn2)nn1 (stereo partly drawn)	-14	14%	·	·	·	-0.2	·
Cc1cccc(NC(=O)CCOc2ccccc2)c1C	-45	13%	0%	0%[15.4 µM]	16	1.2	·
CC(=O)Nc1ccc(S(=O)(=O)N[C@@H](C)C(=O)OCC(=O)Nc2ccc3c(c2)OCCO3)cc1	·	·	4%	-9%	2	·	1.6%
Cc1onc(-c2c(F)cccc2Cl)c1C(=O)OCC(=O)N1C(C)CCCC1C (stereo not drawn)	·	·	-7%	12%	-10	·	·
N=C(N)c1ccc(N=Nc2c(O)ccc3c2[nH]c2ccccc23)cc1	·	·	-7%	?	40	·	-13%
Cc1ccc(C)c(-n2c(SCC(=O)Nc3nonc3C)nnc2-c2ccoc2C)c1	-24	-7%	-4%	-24%	19	-0.2	0.0%
COc1ccc([C@H]2C[C@@H](n3cc(-c4ccc(F)cc4)nn3)[C@H](O)CN2CC2CCCCC2)cc1	·	·	·	26%	6	·	-0.5%
COc1ccccc1N(CN1CCCC1=O)C(=O)c1ccccc1F	3	23%	-1%	2%	-2	1.6	-2.0%
Cc1ccc(N(CC(=O)NC2CCCCC2)C(=O)CCC(=O)Nc2nccs2)cc1	-1	9%	9%	-1%[15.4 µM]	-17	-0.1	-12%
CCOc1ccc(C(=O)COC(=O)C2COc3ccccc3O2)cc1 (stereo not drawn)	12	·	-5%	2%	-9	·	0.8%
Cc1ccc(S(=O)(=O)N/N=C/c2ccc(OS(=O)(=O)c3ccc(C)c([N+](=O)[O-])c3)cc2)cc1	-6	26%	-4%	6%	-28	-1.7	-2.1%
O=c1cc(-c2ccc(O)c(O)c2)oc2c1ccc1ccccc12	-3	·	-17%	1%	32	·	0.4%
COC(=O)c1[nH]c2cccc(OC)c2c1NC(=O)CCN1CCN(c2cccc(Cl)c2)CC1	-13	-2%	·	·	·	-2.0	·
Cc1cccc(-c2nnc(SCC#N)n2-c2cccc(Cl)c2)c1	-5	3%	-17%	-7%	0	3.1	-0.8%
COc1ccc(CNC(=O)C23CN(Cc4ccccc4)CC2C(c2ccc([N+](=O)[O-])cc2)=NO3)cc1 (stereo not drawn)	?	?	5%	-7%	-16	2.1	-0.9%
CC1(C)CC2CC(C)(CN2Cc2cccc([N+](=O)[O-])c2)C1 (stereo not drawn)	-9	?	-1%	0%	0	-0.2	0.4%
